Bioassay records as filed in PubChem BioAssay.
Yeast UUG start: yeast start codon fidelity modulation. S. cerevisiae UUG-firefly luciferase reporter, luminescence/redox ratio. activity score, % at 18.7 µM. 350,000 compounds, 0.13% hits;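 active means replicate mean at a twofold rise or more, about +100% in these data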;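 further: firefly luciferase made from a UUG start codon reports start codon fidelity; reporter light over untreated wells divided by growth signal over untreated wells; some hits fall short of that in this replicate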
Rce1 inhib: inhibitors of yeast Ras-converting enzyme. calls only. AID 2563. 290,000 compounds, 0.27% hits. yeast membranes, quenched prenylated peptide cleavage fluorescence;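 active means fall in fluorescence gain of 50% or more versus controls, with final raw signal at or below 3038400; inconclusive means same 50% fall but final raw signal above 3038400; inactive means fall in fluorescence gain under 50%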;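 further: plate controls were neutral control wells for no effect and wells lacking membranes for full effect; tested at 10 µM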
Target sequence (Q03530 whole entry, looked up): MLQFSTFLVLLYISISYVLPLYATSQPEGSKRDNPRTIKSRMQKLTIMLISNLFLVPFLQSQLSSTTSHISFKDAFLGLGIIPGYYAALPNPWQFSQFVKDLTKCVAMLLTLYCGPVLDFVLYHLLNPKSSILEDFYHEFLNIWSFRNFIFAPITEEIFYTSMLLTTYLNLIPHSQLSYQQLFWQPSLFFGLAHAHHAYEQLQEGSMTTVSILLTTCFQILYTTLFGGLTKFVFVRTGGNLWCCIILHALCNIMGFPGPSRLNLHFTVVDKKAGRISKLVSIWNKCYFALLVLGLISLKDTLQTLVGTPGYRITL
PABP polyA inh: blocks human PABP binding to poly(A) RNA; P11940; fluorescence polarization; inhibition, % at 35 µM; 290,000 compounds, 1% hits; AID 2014;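 active means 50% or more with normal probe brightness, or confirmed in later tests; inconclusive means above 50% with abnormal brightness, or retests that disagree; inactive means below 50% or failed in later tests; about a fifth of its hits are not listed in these tables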;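 further: calls also rest on retests at 20 µM and on dose response follow-up; controls were probe without protein and protein plus probe with vehicle; some compounds called inactive have numbers as strong as hits; many hits fall short of the cut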
Target sequence (P11940 whole entry, looked up): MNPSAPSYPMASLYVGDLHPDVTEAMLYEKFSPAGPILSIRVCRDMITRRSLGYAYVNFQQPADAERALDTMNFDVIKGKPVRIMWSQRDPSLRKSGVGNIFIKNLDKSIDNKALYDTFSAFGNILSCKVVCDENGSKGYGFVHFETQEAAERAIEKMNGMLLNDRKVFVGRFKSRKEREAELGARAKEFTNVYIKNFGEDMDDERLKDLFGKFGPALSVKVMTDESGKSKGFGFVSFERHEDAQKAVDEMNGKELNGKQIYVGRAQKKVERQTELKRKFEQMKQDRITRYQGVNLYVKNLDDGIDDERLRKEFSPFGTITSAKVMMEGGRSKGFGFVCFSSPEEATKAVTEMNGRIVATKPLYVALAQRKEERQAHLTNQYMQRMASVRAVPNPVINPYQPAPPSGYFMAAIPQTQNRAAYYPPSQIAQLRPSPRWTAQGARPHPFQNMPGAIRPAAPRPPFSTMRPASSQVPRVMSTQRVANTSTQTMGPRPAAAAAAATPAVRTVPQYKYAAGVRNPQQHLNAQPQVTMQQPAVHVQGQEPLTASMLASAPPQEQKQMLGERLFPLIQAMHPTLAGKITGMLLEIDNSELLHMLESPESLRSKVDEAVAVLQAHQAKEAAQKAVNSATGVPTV
HIV Env fusion: HIV envelope-mediated fusion inhibition; HeLa-JRFL Env/CEM21 cell fusion, luciferase; 360,000 compounds, 1.1% hits; AID 651610; inhibition, % at 12.3 µM;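 active means mean replicate inhibition score of at least 50 and every replicate individually at or above 50; inconclusive means only one of the two criteria met; inactive means mean below 50 and not all replicates reaching 50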;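 further: 0% = plate neutral controls and 100% = maraviroc near 300 nM; one replicate is shown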
MT1-MMP act inh: blocks activation of human MT1-MMP; P50281; HT1080 RFP-PRO-GFP cells, GFP/RFP ratio fluorescence, overnight; percent of plate control window, DMSO zero; GFP/RFP ratio change, % at 20 µM; 360,000 compounds, 0.061% hits; AID 651647;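 active means GFP/RFP ratio change of at least 30% with cell ATP level not reduced by more than half and red fluorescence within 50% of control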; further: strong numbers were not always called active
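Assay system: HT1080 cells carrying an RFP-PRO-GFP reporter | Dosing: Single dose of 20 µM compound, 1% DMSO final | Incubation: Cells overnight before dosing, compound overnight, 37 °C, 5% CO2 | Evaluation: GFP/RFP fluorescence ratio | Control set: DMSO and RFP-L50D-GFP cell wells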
CSC inhib: cancer stem cell inhibition | AID 2717 | cancer stem cell-like cells viability, luminescence | 300,000 compounds, 1.1% hits | inhibition, % at 7.5 µM;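 active means mean at 75% or more and at least half the replicates too; inconclusive means mean and replicates disagree; tested in HMLE shEcad cells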;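 further: 0% = median of negative and 100% = median of positive control wells; the first replicate is given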
eIF4H inh: inhibitors of RNA binding by human eIF4H | inhibition, % at 35 µM | eIF4H fluorescence polarization binding assay | 290,000 compounds, 0.94% hits | Q15056;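 active means 50% or more with normal probe brightness, or confirmed in later tests; inconclusive means above 50% with abnormal brightness, or retests that disagree; inactive means below 50% or failed in later tests; about a fifth of its hits are not listed in these tables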;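 further: calls also rest on retests at 20 µM and on dose response follow-up; 0% = protein and probe with vehicle and 100% = probe without protein; strong numbers were not always called active; many hits fall short of the cut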
eIF4H inh retest: second read-out of eIF4H inh, no call of its own (marks repeat the call); inhibition, %; compound at 20 µM; confirmation average;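 mean of two retest wells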
PABP polyA inh retest: second read-out of PABP polyA inh, no call of its own (marks repeat the call); inhibition, %; compound at 20 µM; confirmation repeats;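 mean of two retest wells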
MT1-MMP act inh RFP: further read-out of MT1-MMP act inh, marked with its call; RFP signal change, %; measured here: RFP expression control read;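 0 = vehicle wells; hits needed this value within 50% of zero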
The depositor's hits bear a star; i = inactive; ? = inconclusive; · = no result given.

SMILES	Yeast UUG start	Rce1 inhib	PABP polyA inh	HIV Env fusion	MT1-MMP act inh	MT1-MMP act inh RFP	CSC inhib	eIF4H inh	others
CC(=O)Oc1ccccc1C(=O)Nc1ccccc1C(=O)N1CCCC1	-16	i	-5	-8	3	6	-8	2
Nc1ncnc(Nc2c(F)cccc2F)n1	·	·	3	12	-3	2	-1	-6
CCCCCCOc1cccc(N)c1	-26	i	-2	-20	-4	1	5	5
CCN(CC)C(=N)/C(C#N)=N/Nc1ccc(C)cc1	-22	i	-6	-47	-3	2	-7	0
CCN(CC(=O)Nc1c(F)cccc1F)C(=O)CSc1ccccc1	-10	i	·	0	1	2	-8	·
CC(C(=O)Nc1ccccc1-c1ccccc1)N(C)Cc1nc2ccccc2c(=O)[nH]1 (configuration not stated)	-17	i	-1	-36	4	-4	36	0
Cc1ccc(F)c(NC(=O)CCc2ccccc2)c1	-8	·	0	-129	10	2	-7	3
COc1cc(CNc2nc3c(C)cc(C)cc3s2)ccc1O	-5	i	17	5	-2	-8	22	5
O=c1cc(CCl)nc2scc(-c3ccccc3)n12	-11	i	22	0	-14	1	0	3
COc1ccc(NC(=O)c2c[nH]n3c(=O)cc(C4CCN(C(=O)OC(C)(C)C)CC4)nc23)cc1Cl	-16	i	-10	13	0	2	36	3
COc1ccc(-n2c(C)cc(/C=N/Nc3nnc(C)n3N)c2C)cc1	·	i	-6	-34	2	4	6	-2
O=C(NCCCN1CCN(CCCNC(=O)c2cc([N+](=O)[O-])ccc2Cl)CC1)c1cc([N+](=O)[O-])ccc1Cl	9	i	12	0	5	0	10	24
CCOc1ccc(N(CC(=O)NCCSCc2ccco2)S(=O)(=O)c2ccc(F)cc2)cc1	-1	i	9	18	-1	-1	-12	3
Cc1nc(SCC(=O)N2CCCC2=O)nc(C)c1C	-37	·	·	10	1	4	3	·
NC(=S)N/N=C/c1cn(CCC(=O)O)nc1-c1cccc(Br)c1	-24	i	7	-4	2	4	-25	-11
CC1(C)Cc2c(sc(NC(=O)c3ccc(S(=O)(=O)N4CCCCCC4)cc3)c2C(N)=O)C(C)(C)N1	14	i	-5	-2	5	2	·	1
CCOc1ccc(N2C(=O)CC(NCc3ccc(S(N)(=O)=O)cc3)C2=O)cc1 (configuration not stated)	-14	i	-6	6	1	3	-11	-3
COc1ccc(CCNC(=O)CCCCC(=O)NCCc2ccc(OC)cc2)cc1	-21	i	0	-3	9	2	-2	-6
CCN(C[C@H]1N[C@@](CC)(C(=O)OC)[C@H]2C(=O)N(Cc3ccccc3)C(=O)[C@@H]12)S(=O)(=O)c1ccc(-c2ccccc2)cc1	-13	·	·	33	-4	-5	·	·
O=C(CCSCc1ccccc1Cl)N1CCN(c2cccc(Cl)c2)CC1	·	i	0	19	5	6	28	4
O=C(CSc1ccc2nnc(-c3ccc(Cl)cc3)n2n1)N1CCCC1	-5	i	11	-8	0	4	0	-16
O=C(NCCc1ccc(F)cc1)N[C@@H](Cc1ccccc1)C(=O)O	-6	i	12	-1	2	3	-7	-10
CC(C)(C)OC(=O)N1CCC(C(=O)Nc2cccc(C(=O)NC3CC3)c2)CC1	-7	·	·	-34	1	1	·	·
COc1ccc(CN(Cc2cccn2C)C(=O)c2cc3cc(OC)ccc3[nH]2)cc1	-22	i	-8	22	-1	-5	1	0
COc1ccc2c(c1)C1NC(=S)NC(C)(O2)C1C(=O)Nc1ccccc1C (configuration not stated)	-22	i	-2	-38	-1	0	-7	1

The last four entries of the part before come first, to join the parts:
SMILES	Yeast UUG start	Rce1 inhib	PABP polyA inh	HIV Env fusion	MT1-MMP act inh	MT1-MMP act inh RFP	CSC inhib	eIF4H inh	others
O=C(NCCc1ccc(F)cc1)N[C@@H](Cc1ccccc1)C(=O)O	-6	i	12	-1	2	3	-7	-10
CC(C)(C)OC(=O)N1CCC(C(=O)Nc2cccc(C(=O)NC3CC3)c2)CC1	-7	·	·	-34	1	1	·	·
COc1ccc(CN(Cc2cccn2C)C(=O)c2cc3cc(OC)ccc3[nH]2)cc1	-22	i	-8	22	-1	-5	1	0
COc1ccc2c(c1)C1NC(=S)NC(C)(O2)C1C(=O)Nc1ccccc1C (configuration not stated)	-22	i	-2	-38	-1	0	-7	1
Cc1ccccc1S(=O)(=O)NC(=O)C1(C)CCN1C(=O)CCc1ccc(Cl)cc1Cl (configuration not stated)	-32	·	·	71*	0	6	·	·
Cn1sc(NC(=O)c2ccccc2Cl)nc1=O	-10	i	2	-15	1	-2	-14	-1
O=C(NC1CCS(=O)(=O)C1)c1cccs1 (configuration not stated)	-8	i	2	8	1	3	-7	-2
CCOc1ccccc1CNCCNCC(C)O (configuration not stated)	-13	i	3	0	-3	1	-2	-14
O=C(CN1C(=O)c2ccccc2C1=O)Nc1cc([N+](=O)[O-])ccc1O	4	i	-1	7	12	2	-6	-4
CC(=O)OCC(=O)[C@@]1(O)CC[C@H]2[C@@H]3CCC4=CC(=O)C=C[C@]4(C)[C@@]3(Cl)[C@@H](Cl)C[C@@]21C	-1	i	-6	i	-1	2	-10	-3
C#CCOCCOCCOCCNc1nc(N2CCN(C(=O)[C@H]([C@@H](C)CC)n3cc(CCC(=O)O)nn3)CC2)nc(N2CCN(C(=O)[C@H](Cc3ccc(O)cc3)n3cc(CCO)nn3)CC2)n1	16	·	·	-41	0	1	·	·
O=C(CCCCCNc1nc(=S)[nH]c2ccccc12)NCCc1c[nH]c2ccccc12	-22	i	-8	19	-2	-16	10	-14
Cc1ccsc1CNC(=O)C1(C)CCCN1CC(C)C (configuration not stated)	-2	·	·	-7	1	6	·	·
Cc1ccc(S(=O)(=O)NCC2CCC(C(=O)NCc3ccc4c(c3)OCO4)CC2)cc1 (configuration not stated)	-7	i	8	·	2	1	4	-4
O=C(NCCCN1CCOCC1)c1ccc(CS(=O)(=O)c2cccc(C(F)(F)F)c2)o1	0	i	-4	3	6	3	10	-9
COc1ccc(OC)c(Cc2nnc(CCC(=O)NC(C3CC3)C3CC3)o2)c1	·	i	5	6	-2	3	-11	-5
O=C(OCc1ccc(Br)cc1)c1cc([N+](=O)[O-])ccc1N1CCOCC1	-12	·	·	-75	1	-7	·	·
COCCNC(=O)/C(C#N)=C/c1ccc(N2CCOCC2)o1	·	i	17	-8	-49	1	-10	70	eIF4H inh retest=2;PABP polyA inh retest=2
Cc1nn(Cc2ccccc2)c(C)c1C(=O)OCC(=O)c1cc(C)n(C2CC2)c1C	2	i	9	·	-1	-4	24	3
C/C(=N\N)c1c(-c2ccccc2)c2cc(Br)ccc2[nH]c1=O	-19	i	15	·	0	0	-6	7
CS(=O)(=O)Nc1cccc(C(=O)CC2(O)C(=O)Nc3ccc(Br)cc32)c1 (configuration not stated)	-12	i	4	·	-3	3	6	-9
Nc1cc(N)c(OCC(F)(F)F)cc1OCC(F)(F)F	-16	i	90*	·	-11	1	-7	106*
Cc1ccc(S(=O)(=O)CCC(=O)OCC(=O)c2c(C)[nH]c3ccccc23)cc1	-1	i	-5	-71	·	·	3	2
O=c1[nH]cnc2c1C(c1ccc(Cl)cc1)c1c(nc[nH]c1=O)O2	0	i	2	·	-2	2	·	3
Cc1ccc(/C=C2/SC(=Nc3ccc(F)cc3)NC2=O)s1	-14	i	10	0	-35	-3	7	30
CCOC(=O)CSc1nnc2c3ccccc3n(C)c2n1	-10	i	-6	-7	-3	2	-12	-16
CCOC(=O)c1oc2nc(CC(C)C)c3c(c2c1N)CCC3	4	i	6	·	-13	-1	-5	2
CCOc1ccccc1C(=O)Nc1nnc(CC)s1	3	i	-1	6	-3	2	-14	-1
NC(=O)[C@@H]1CCCNc2c(I)cc([N+](=O)[O-])cc2C(=O)N[C@@H](CCCN=C(N)N)C(=O)N[C@@H](CCCN=C(N)N)C(=O)N1	·	·	1	·	·	·	-3	20
Carrying on:
SMILES	Yeast UUG start	Rce1 inhib	PABP polyA inh	HIV Env fusion	MT1-MMP act inh	MT1-MMP act inh RFP	CSC inhib	eIF4H inh	others
O=C(O)COc1ccccc1/C=N/NC(=O)/C(=C\c1ccc2c(c1)OCO2)NC(=O)c1ccccc1	-24	i	10	4	0	7	-1	5
COc1cc(NC(=S)Nc2cccnc2)cc(OC)c1	·	i	-10	3	2	2	-16	?
Cc1ccccc1CN1CCC(n2nccc2NC(=O)CCOc2ccccc2)CC1	-16	i	4	10	1	5	14	-1
CCOc1cc(Br)c(C(C)NC(=O)c2cccnc2)cc1OCC (configuration not stated)	-9	i	·	-7	4	-13	2	·
Cc1ccc(N2CCN(C(=O)c3ccccc3Br)CC2)c(C)c1	-14	i	-10	·	3	0	-6	-17
CCCCNC(=O)C1CCC(CNS(=O)(=O)c2cccc3nsnc23)CC1 (configuration not stated)	-16	i	0	3	-3	1	·	-10
Cn1c(=O)c2c(nc(NCc3ccco3)n2Cc2ccc(Cl)cc2Cl)n(C)c1=O	-4	i	13	18	-2	-11	5	24
O=C(CN1CCOCC1)Nc1ccc(S(=O)(=O)NC2CCCCC2)cc1	-2	i	4	-13	3	-4	2	-4
COc1ccc(C2OC34CCCCC3C(C#N)(C#N)C2(C#N)C(=N)O4)cc1 (configuration not stated)	-4	i	?	·	-36	25	-4	?
COc1ccc(C2C(O)C(c3c[nH]c4ccccc34)=NN2C(=O)CCl)cc1 (configuration not stated)	-1	i	-5	-72	-37	-34	109*	-7
C[C@@H](NC(=O)c1nc[nH]c1C(=O)N1CCN(c2ccccc2)CC1)c1ccccc1	-2	·	·	9	2	4	-19	·
Cn1c(=O)[nH]c(=O)c2c1nc(N1CCOCC1)n2CCSc1nc2ccccc2[nH]1	-15	i	7	-25	2	-1	-5	17
O=C1/C(=C\c2cccs2)SC(=S)N1C1CCS(=O)(=O)C1 (configuration not stated)	·	i	6	-6	0	-2	5	-8
CCOC(=O)c1cn2nc(Oc3cccc(F)c3)ccc2n1	·	i	-1	-5	-1	2	-11	-10
c1ccc(-c2nc(-c3ccncc3)no2)cc1	-34	i	-9	·	-4	-1	-13	1
Cc1cc(C(=O)N/N=C/c2ccccc2)c(C)o1	-12	i	-5	-27	4	1	-4	15
COc1ccc(NC(=O)COC(=O)CCc2ccc(S(=O)(=O)N3CCOCC3)cc2)cc1OC	-4	·	·	-2	0	1	-15	·
CCN1C=CC(=C2C(=O)c3ccccc3C2=O)C=C1	-91	i	13	73*	3	0	-6	4
O=C(O)CCC(=O)CCC(=O)c1ccccc1	-10	i	-10	-42	5	1	-18	6
C=CCn1c(CCNC(=O)c2cccs2)nnc1SCC(=O)c1ccc(Br)cc1	-5	i	-5	-46	3	-1	-24	-4
COc1ccc(C)cc1S(=O)(=O)NCC(c1ccc2c(c1)OCO2)N1CCN(C)CC1 (configuration not stated)	-13	i	·	-14	1	3	-10	·
CC1(C(=O)NS(=O)(=O)c2ccc(F)cc2F)CCN1C(=O)C1CCCCC1 (configuration not stated)	-16	·	·	3	-5	3	·	·
O=C(COc1cccc([N+](=O)[O-])c1)NN1C(=O)c2ccccc2C1=O	-20	i	14	2	-2	-1	1	11
COc1ccc(Nc2ccc(Nc3ccc(OC)cc3)nn2)cc1	-12	i	-8	5	0	-1	-13	-2
Cc1ccc(S(=O)(=O)N2CCN(S(=O)(=O)c3ccccc3)C2c2ccc(N(C)C)cc2)cc1 (configuration not stated)	-27	·	-2	53*	5	2	-6	4
O=C(NCc1ccc(N2CCCC2=O)cc1)Nc1cccc2ccccc12	-6	i	-1	12	5	-4	46	6

Not all compounds are listed; the hit share may differ from the screen's.
